High-throughput results from PubChem BioAssay.
Bead autofluor = counter-screen for toxin protease inhibitors: compound fluorescence; compound autofluorescence counterscreen, microsphere flow cytometry; hits give high values; fluorescence intensity (test concentration not listed); actives 3.1% (n = 360,000); AID 624483;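 active = at least 3 SD above the mean of all compounds, about 16000 in these data; inconclusive = too few beads counted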;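 also: 100 nL of 1 mM stock went into each well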
BJeLR lethal = MLPCN primary cell-based screen for lethality selective to Ras in HRASV12 cells; BJeLR (HRASV12) viability, CellTiter-Glo ATP luminescence, 48 h; reference of the scale not given here; inhibition, % (test concentration not listed); actives 0.17% (n = 300,000);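 active = replicate mean above 50%; inconclusive = above 50% but judged a plate artefact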;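 also: 50 nL library stock added to about 25 µL; numbers are from one replicate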
Sa ugtP lethal = growth inhibition of ugtP-null S. aureus, primary screen, RN4220 ugtP deletion, OD600. actives 0.54% (n = 330,000). growth inhibition, % (no concentration beside the values). 16 h; some inactives read as strong as hits;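 active = z-score under -3 and OD600 up to 0.15 on both plates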;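 also: plate controls were untreated wells for no effect and antibiotic for full effect; wells of about 80 µL received 100 nL stock; the first replicate is given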
RN4220 kill = growth inhibition of S. aureus RN4220, primary screen, OD600; 16 h; inhibition, % (test concentration not listed); actives 0.33% (n = 330,000);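 active = z-score of -3 or lower and OD600 up to 0.18 on both plates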;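 also: plate controls were untreated cells for no effect and reference antibiotic for full effect; stock transfer was 100 nL into about 80 µL; one replicate is shown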
Mtb hypoxia inh = PubChem AID 1159583 | M. tuberculosis hypoxia-regulated fluorescent reporter, fluorescence | fluorescence inhibition, % (concentration not given with the values) | actives 0.1% (n = 300,000);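 active = 35 to 45% if threefold the growth effect, above 45% if 1.5-fold the growth effect; inactive = the rest, general growth blockers included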;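 also: wells of about 50 µL received 100 nL stock; 0% = vehicle wells and 100% = reference inhibitor wells; whole bacteria with a GFP reporter of the hypoxia response; strong numbers were not always called active; many hits fall short of the cut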
PrP 5UTR inh = inhibition of PrP 5' UTR reporter expression; cell-based PrP 5' UTR mRNA reporter, plate reader; inhibition, % (no concentration beside the values); actives 0.35% (n = 340,000); AID 488862, 2010;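 active = every replicate at 50% or more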;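 also: 0 = median of the neutral control wells; tested in H4 reporter cells; numbers are from one replicate; inactives centre near -14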
Mtb hypoxia inh growth = recorded beside Mtb hypoxia inh, whose call it bears; growth inhibition, %; measured here: M. tuberculosis growth (absorbance);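 0% = vehicle and 100% = reference antibiotic; read after six days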
Numbers without * were called inactive; ? = inconclusive; nt = not tested or not shown; & = joins results of further samples.

SMILES	Bead autofluor	BJeLR lethal	Sa ugtP lethal	RN4220 kill	Mtb hypoxia inh	Mtb hypoxia inh growth	PrP 5UTR inh
COc1ccc(CNC(=O)CC23CC4CC(CC(C4)C2)C3)cc1	4499	-11	5	2.0	4	16	-14
Cc1ccccc1NC(=O)CSc1nnnn1C	3159	8	3	2.2	4	9	-9
COC(=O)c1ccc(C=NNC(=O)c2cccc(F)c2)cc1	nt	nt	8	1.6	3	3	nt
Cn1c(SCc2cccc(F)c2)nnc1-c1cnccn1	3732	0	0	4.2	14	21	-26
CS(=O)(=O)c1ccc2nnn(OCC(=O)Nc3cccc(C#N)c3)c2c1	6298	1	0	2.2	0	6	-27
Cc1ccc(Nc2nnc(SCC(=O)NC(Cc3c[nH]c4ccccc34)C(=O)O)s2)cc1 (stereo not drawn)	4347	3	3	1.0	-11	-5	-30
Cn1nnc(NC(=S)NC(=O)Cc2ccccc2)n1	4749	-1	8	4.6	4	2	-27
CC(=O)c1ccc(N/C=C/C(=O)c2ccc(Br)cc2)cc1	3517	2	3	3.0	6	-2	-79
Cc1ccc(C(=O)O)c(C(=O)Nc2nc3ccccc3s2)c1	3936	0	3	3.4	2	-3	4
O=S(=O)(c1ccccc1)N1CCN(c2cccc(Cl)c2)CC1	3835	5	38	10	1	3	-25
COc1ccc(S(=O)(=O)N2CCCC(N(C)CCc3ccccc3)C2)cc1OC (stereo not drawn)	3884	-11	3	2.5	-3	9	14
C=CCCCCCCCCC(=O)NNC1=CC(=O)CC(C)(C)C1	3297	-7	-5	-10	10	8	-5
CCn1c(SCC(=O)Nc2ccc(OC)cc2)nc2c1c(=O)n(C)c(=O)n2C	2836	3	4	3.7	-1	-6	5
CC1CCCC(NC(=O)COC(=O)c2cc(S(=O)(=O)N3CCCCC3)ccc2N2CCOCC2)C1C (stereo not drawn)	6235	-5	-8	5.7	3	8	2
CCCC(c1nnnn1Cc1ccco1)N1CCN(C(=O)c2ccco2)CC1 (stereo not drawn)	4876	7	2	1.2	2	8	-2
Cc1cc2cc(CN(Cc3cccs3)S(=O)(=O)c3ccc4c(c3)OCCO4)c(=O)[nH]c2cc1C	2190	-16	nt	nt	nt	nt	-17
CC(=O)Nc1ccc(C2Nc3cc(C)c(C)cc3NC3=C2C(=O)CC(C)(C)C3)cc1 (stereo not drawn)	3577	-6	0	1.7	4	0	-28
COC(=O)C1=C(c2ccc(OC)c(OC)c2)CC2CCC1N2C(=O)N1CCC(C)CC1 (stereo not drawn)	nt	nt	-1	3.1	9	11	nt
O=C(CN1CCOCC1)NCCc1ccccc1	3531	26	15	4.5	13	21	-33
CN(Cc1ccccc1)Cc1ccccc1OC(=O)N(C)C	5564	-3	-13	7.9	3	5	-17
COc1ccc2c(/C=N/NS(=O)(=O)c3ccc(C)cc3)c[nH]c2c1	4581	-10	nt	nt	nt	nt	3
Cc1c(CCC(=O)O)c(=O)oc2c(C)c3occ(-c4ccc(Cl)cc4)c3cc12	3870	-3	101*	96*	18	-1	-26
COc1ccc(CN(Cc2ccc(C(=O)O)cc2)C(=S)Nc2cc(C)cc(C)c2)cc1OC	4219	7	7	2.2	-1	-1	-25
Cc1ccc(C(=O)NCC(=O)OCC(=O)NCCNC(=O)COC(=O)CNC(=O)c2ccc(C)cc2)cc1	5361	-12	5	1.4	-1	-4	-10
CC(NC(=O)c1[nH]cnc1C(=O)Nc1ccc(Cl)cc1)c1ccccc1 (stereo not drawn)	nt	nt	-33&-28	13&-6.6	12&-15	5&0	nt
Cc1noc(C)c1CSCC(=O)Nc1nc2ccc(F)cc2s1	4106	-9	-10	-2.4	-6	5	-24
CCC(C)(NC(=O)c1ccccn1)C(=O)NC1CCCC1 (stereo not drawn)	3942	21	4	3.8	-3	-2	-11
O=[N+]([O-])c1ccccc1N(S(=O)(=O)c1ccccc1)S(=O)(=O)c1ccccc1	3854	nt	8	7.2	8	11	-15
O=[N+]([O-])c1ccc(-c2nn(-c3ccccc3)cc2/C=N/n2c(-c3ccncc3)n[nH]c2=S)cc1	3739	-4	nt	nt	nt	nt	-11
CCCCNS(=O)(=O)c1ccc(S(=O)(=O)NCc2ccncc2)cc1	11280	17	1	2.4	2	1	-17
CN1N=C(C(=O)N2CCCC(C(=O)c3cccc(C(F)(F)F)c3)C2)CCC1=O (stereo not drawn)	4644	5	0	1.0	0	9	-17
OC(CN1c2ccccc2Sc2ccccc21)Cn1nnc2ccccc21 (stereo not drawn)	4429	0	-32	2.1	13	12	-20
CCOC(=O)CCCNC(=O)COC(=O)c1cc2ccccc2cc1O	2358	2	3	2.9	nt	nt	10
O=C(CSc1nnnn1C1CCCC1)NCCc1ccccc1	3784	-17	14	2.2	-19	0	-11
CCC(=O)Nc1sc(C(=O)N2CCCCC2)c(C)c1C#N	9686	1	-1	0.9	2	9	1
Cc1ccc(C(=O)NNC(=O)CSc2nnc3ccccn23)cc1	3417	nt	3	3.9	9	7	-2
CCOC(=O)CN1C(=O)S/C(=C/c2ccc(C)o2)C1=O	3520	-14	6	4.0	7	3	-28
CC(=O)Nc1ccc(NC(=O)c2nccnc2C(=O)O)cn1	2871	5	7	2.8	10	-5	-10
Cc1ccc(S(=O)(=O)/N=C(/c2ccccc2)N2CCOCC2)cc1	4626	-1	nt	nt	nt	nt	-5
COc1ccc(C(=O)OCC(=O)N2CCCCCC2)cc1S(=O)(=O)N1CCOCC1	7731	nt	2	0.0	5	-12	-9
CCOC(=O)C1CCCN(C(=O)CCCn2nnnc2CN2CCOCC2)C1 (stereo not drawn)	4741	-1	2	4.0	4	1	-13
Cn1cccc1Cc1nnc(SCC(=O)NCC2CCCO2)n1C (stereo not drawn)	2262	-10	10	2.3	18	1	-17
CCc1ccc(NC(=S)NC2CC3CCCC(C2)N3Cc2cccs2)cc1 (stereo not drawn)	8274	10	9	-0.5	-2	2	-26
Cc1[nH]nc2c1C(c1ccc(F)cc1)C1=C(CC(C)(C)CC1=O)N2 (stereo not drawn)	4228	0	4	0.7	2	1	-13
Cc1ccc(C2(C)NC(=O)N(CC(=O)Nc3ccccc3C(=O)NC3CCCC3)C2=O)cc1 (stereo not drawn)	?	2	1	2.4	-2	-4	-21
COc1cccc(NC(=S)N/N=C2\CC3CCC2(C)C3(C)C)c1 (stereo not drawn)	4739	0	nt	nt	nt	nt	-51
CC(=NOC(=O)c1cccc(Cl)c1)c1nccs1	nt	nt	-2	5.7	11	0	nt
COc1cc(NC(=O)NCc2ccncc2)cc(OC)c1OC	7035	-2	4	5.3	5	6	-10
Fc1cnc(N2CCOCC2)nc1N1CCc2ccccc21	nt	0	5	6.1	7	13	-17
O=C(/C=C/c1ccco1)Nc1ccc(C(=O)N2CCOCC2)cc1	2000	-3	0	2.4	10	10	-18
N#Cc1ccccc1NC(=O)COC(=O)c1ccc2c(c1)OCO2	8593	nt	1	-0.9	-2	8	-12
Cc1nc(CN(C)Cc2nc(Cc3ccccc3Cl)no2)cs1	3367	-2	-6	1.2	7	9	-19
N#CCCN(CCN1CCCC1)S(=O)(=O)c1ccc(-c2ccc([N+](=O)[O-])cc2)cc1	4280	-1	5	4.1	-11	13	-14
Cc1ccc(NC(=O)COC(=O)C2CC2)cc1S(=O)(=O)N1CCOCC1	3672	nt	4	5.9	14	4	-2
O=C(NCCC1=CCCCC1)c1cc(S(=O)(=O)N2CCOCC2)c(Cl)cc1Cl	5100	3	0	2.3	7	10	-6
CC(=O)c1cccc(NC(=O)COC(=O)c2ccc(S(C)(=O)=O)c([N+](=O)[O-])c2)c1	3358	-10	1	2.3	15	8	-79
COc1ccc(CCNC(=O)CSc2cccc3cccnc23)cc1OC	3304	4	-3	1.9	3	0	-18
CCCNC(=O)NC(C(=O)OC)C12CC3CC(CC(C3)C1)C2 (stereo not drawn)	2184	0	-4	-4.1	nt	nt	-21
Cc1ccc(N2CCN(S(=O)(=O)c3ccc4oc(=O)ccc4c3)CC2)c(C)c1	3956	0	7	3.5	-10	-1	7
COCCn1c(SCC(=O)Nc2ccccc2OC)nc2c([nH]c3ccccc32)c1=O	6034	-6	7	11	2	1	-12
The list continues:
SMILES	Bead autofluor	BJeLR lethal	Sa ugtP lethal	RN4220 kill	Mtb hypoxia inh	Mtb hypoxia inh growth	PrP 5UTR inh
O=c1[nH]c(CN2CCN(c3ccc([N+](=O)[O-])cc3)CC2)nc2ccsc12	2161	1	10	0.5	nt	nt	-25
O=C(O)c1cc(S(=O)(=O)O)cc(Nc2c3ccccc3nc3ccccc23)c1O	3696	2	11	7.0	8	-3	-18
Cc1ccccc1NC(=O)COC(=O)c1c(-c2ccccc2)noc1C	3915	nt	4	3.0	6	1	-16
Cc1nc(-c2coc3cc(O)c(C)cc3c2=O)cs1	?	28	6	5.4	19	12	-19
CSc1ccc(CN(C)CC(=O)NC(=O)NC(C)(C)C)cc1	8559	-4	-4	0.0	10	4	-34
COc1cccc(C(CCc2cc(OC)c(OC)c(OC)c2)NC(C)=O)c1 (stereo not drawn)	3822	nt	-5	5.9	1	0	-10
Nc1ccc(C(=O)OCC(=O)Nc2ccc([N+](=O)[O-])cc2C(F)(F)F)cc1	2453	-6	4	12	10	7	-15
COCCCNC1=C(Cl)C(=O)c2ccccc2C1=O	?	1	14	33	-18	-3	-42
COc1cc(NC(=O)CSc2nc3ncnc(N)c3[nH]2)c(C(=O)O)cc1OC	3106	-25	10	3.9	-4	-4	-11
Cc1ccc(S(=O)(=O)NCc2ccc(C(=O)NCCCN3CCN(C)CC3)cc2)cc1	3332	11	5	0.3	nt	nt	-13
COc1ccc(-n2ncc3c(=O)n(CC(=O)NC(C)C)cnc32)cc1	3251	4	4	2.7	19	2	7
COc1cc2c(cc1OC)CN(C(=O)/C=C/c1cc(OC)c(OC)c(OC)c1)CC2	3940	-2	1	3.2	-3	13	-7
Cc1ccc(C(=O)NNC(=O)C2CCN(S(=O)(=O)c3ccc(C)cc3)CC2)cc1	4290	-15	13	3.3	4	9	7
COc1ccccc1C(=O)NNC(=O)c1ccc2ccccc2c1	3222	2	-5	7.7	13	6	-43
O=C(O)C1=CCCNC1	5633	4	-3	7.6	-2	3	-27
N/C(=N\OC(=O)CC1CCCCC1)c1cccc(Br)c1	5865	3	6	2.2	10	18	-15
COCC1CCN(Cc2cn[nH]c2-c2cc(OC)c(OC)c(OC)c2)CC1	4194	-6	7	6.3	7	15	-8
Cc1cccc(C)c1NC(=O)CNC(=O)c1c(-c2ccccc2)noc1C	8725	nt	-1	0.1	5	-3	-8
CCCOc1ccc(C(F)(F)F)cc1NC(=O)C1CC(=O)N(Cc2ccco2)C1 (stereo not drawn)	3420	nt	7	4.4	-7	3	-4
Cc1ccc(C(C)C)c(OCC(=O)NNC(=O)C2CSC3(C)CCC(=O)N23)c1 (stereo not drawn)	nt	nt	7	6.6	5	10	-21

Only BJeLR lethal and Sa ugtP lethal, for 2 of the compounds above:
structure,BJeLR lethal,Sa ugtP lethal
COC(=O)c1ccc(C=NNC(=O)c2cccc(F)c2)cc1,nt,8
Cn1c(SCc2cccc(F)c2)nnc1-c1cnccn1,0,0

Later entries.
SMILES	Bead autofluor	BJeLR lethal	Sa ugtP lethal	RN4220 kill	Mtb hypoxia inh	Mtb hypoxia inh growth	PrP 5UTR inh
CCCCN(C)S(=O)(=O)c1cc2c3c(c1)CCC(=O)N3CCC2	5173	0	7	2.8	9	13	-20
O=S(=O)(Nc1ccn(-c2ccccc2)n1)c1ccc(Br)cc1	11526	2	-10	14	14	5	-15
Cc1nc(N2CCOCC2)[nH]c(=O)c1[N+](=O)[O-]	4370	-11	-2	1.8	-5	-8	-15
O=C(Nc1cc(-c2ccccc2)[nH]n1)c1ccccc1	nt	2	-6	0.9	-5	2	-59

Entries from the list above with a cyano group, in the order listed:
SMILES	Bead autofluor	BJeLR lethal	Sa ugtP lethal	RN4220 kill	Mtb hypoxia inh	Mtb hypoxia inh growth	PrP 5UTR inh
CS(=O)(=O)c1ccc2nnn(OCC(=O)Nc3cccc(C#N)c3)c2c1	6298	1	0	2.2	0	6	-27
CCC(=O)Nc1sc(C(=O)N2CCCCC2)c(C)c1C#N	9686	1	-1	0.9	2	9	1
N#Cc1ccccc1NC(=O)COC(=O)c1ccc2c(c1)OCO2	8593	nt	1	-0.9	-2	8	-12
N#CCCN(CCN1CCCC1)S(=O)(=O)c1ccc(-c2ccc([N+](=O)[O-])cc2)cc1	4280	-1	5	4.1	-11	13	-14
